# TRPV1 PAM – HTS Assay for Compounds that Act as Potentiators of the Vanilloid Receptor 1; 320,000 compounds, 0.02% hits; TRPV1-expressing cells, Fluo-8 calcium influx, capsaicin EC20 potentiation; host cell line not named in the record; control for the full effect not named in the record; potentiation, % at 8.33 µM; Transient receptor potential cation channel subfamily V member 1 (Homo sapiens), Q8NER1; active means potentiation above 80%; inconclusive means 30% to 80%; inactive means below 30%; note: 0% is about no effect
#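 TRPV1-expressing cells were cultured overnight at 35.5C and loaded with Fluo-8 calcium dye for 40 to 90 min at room temperature. After a 10 s baseline, compound was added and calcium influx was read kinetically for 3 min (ex 480/em 520 nm).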
# Sfp inh – qHTS Assay for Inhibitors of Bacillus subtilis Sfp phosphopantetheinyl transferase (PPTase); Potency, µM, inactives show max response, negative = inhibition, hits mostly inhibitors; 4'-phosphopantetheinyl transferase ffp (Bacillus subtilis), Q9F4F7; AID 1490, 2009; 310,000 compounds, 3.5% hits; Biochemical Sfp PPTase activity, qHTS; active = well fitted inhibition curve with a large enough effect; inconclusive = small, poorly fitted or top-dose-only effect, or another doubt; inactive = no such curve, though single readings can be large or run the other way;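 note: the enzyme is Sfp with the accession as filed and its product quenches rhodamine fluorescence; potency is the fitted concentration of half-maximal effect; 0% = enzyme reaction without inhibitor and -100% = no enzyme wells; top concentration of the series not given in the record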
#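 Step 1, compound plus 15 nM Sfp-PPTase, 15 min, room temperature. Step 2, add rhodamine-CoA (5 uM) and BHQ-2-YbbR (12.5 uM). Step 3, read 525/598 nm fluorescence at 0 and 30 min.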
# gsp ag – qHTS for Agonist of gsp, the Etiologic Mutation Responsible for Fibrous Dysplasia/McCune-Albright Syndrome: qHTS; gsp mutant cells, cAMP HTRF, 30 min; control for the full effect not named in the record; Potency, µM (doses to about 76.9 µM), for inactives: at the top dose activation (cAMP increase), actives largely listed as activators; 340,000 compounds, 0.13% hits; active = well fitted activation curve with a large enough effect; inconclusive = small, poorly fitted or top-dose-only effect, or another doubt; inactive = no such curve, though single readings can be large or run the other way; cell line not stated here;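 note: phosphodiesterase inhibitor Ro 20-1724 added with compounds to block cAMP breakdown; potency is the fitted concentration of half-maximal effect; nearly all actives have a fitted effect of over 60% in size; about a fifth of the inactives were tested at one dose only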
#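 Cells in DMEM/10% FBS with G418 were pretreated with compounds in DMSO plus […] (300 uM stock) for 30 min at 37C. cAMP was measured by HTRF (cAMP-d2 plus anti-cAMP antibody-K) after 30 min at room temperature.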
# Menin MLL FP FL – qHTS Assay for Inhibitors Targeting the Menin-MLL Interaction in MLL Related Leukemias: Competition With Fluorescein Labeled MLL-derived Peptide. AID 1766, 2009. 290,000 tested, under 10 active. FP activity change, % at 61.4 µM. Fluorescence polarization, fluorescein-MLL peptide displacement from menin; inconclusive = falling polarisation curve, or a change in total fluorescence; inactive = total fluorescence flat and polarisation flat or rising; no compound was filed as active; the % refers to the polarisation; negative = inhibition;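 note: % of control where 0% means no effect; inhibitors lower the polarisation; unlabelled MLL peptide was the positive control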
# ClpP mod – qHTS Assay for Activators of ClpP; ATP-dependent Clp protease proteolytic subunit (Bacillus subtilis (strain 168)), P80244; purified B. subtilis ClpP, FRET peptide cleavage, 20 min; Potency, µM (highest dose often 57.5 µM), for the others: top-dose activity change, negative = active; 340,000 compounds, 1.9% hits; AID 651965, 2013; active = well fitted falling curve with a large enough effect; inconclusive = small, poorly fitted or top-dose-only effect; inactive = no such curve, though single readings can be large or run the other way; note: potency is the fitted concentration of half-maximal effect; the source files actives as falling curves though it sought activators and does not explain the sign; nearly all actives have a fitted effect of over 65% in size; many hits overshoot -100%
# Target sequence (P80244 whole entry, looked up): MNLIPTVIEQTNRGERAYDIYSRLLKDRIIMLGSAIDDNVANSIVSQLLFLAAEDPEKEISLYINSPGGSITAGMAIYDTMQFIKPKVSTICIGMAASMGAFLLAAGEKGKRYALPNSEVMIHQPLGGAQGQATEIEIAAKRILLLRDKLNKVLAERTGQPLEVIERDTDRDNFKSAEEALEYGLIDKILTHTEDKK
#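 FRET quenching reversal measured ClpP activation: 10 microg/mL B. subtilis ClpP at pH 8 with the FRET-FV decapeptide, read at 430 nm after 320 nm excitation. The 20-min minus 0-min signal was scaled between DMSO/no-enzyme wells and ADEP (5.8 microM final).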
# gsp antag – qHTS for Antagonists of gsp, the Etiologic Mutation Responsible for Fibrous Dysplasia/McCune-Albright Syndrome: qHTS; gsp-mutant cells, cAMP HTRF, 30 min; control for the full effect not named in the record; Potency, µM (highest dose often 76.9 µM), for the others: at the top dose activity change, negative = inhibition, most hits filed as inhibitors; 340,000 compounds, 0.4% hits; active = falling curve of any shape with a large fitted effect; inconclusive = falling curve, mostly with a smaller effect; inactive = flat or rising curve; cell line not stated here;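 note: intracellular cAMP measured with PDE inhibitor Ro 20-1724 present during compound exposure; potency is the fitted concentration of half-maximal effect; % is set by controls: 0 for no effect and ±100 for the full control effect; nearly all actives have a fitted effect of over 65% in size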
#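 Measurement of cellular cAMP by homogeneous time-resolved fluorescence following a 30 min compound exposure at 37C. The PDE inhibitor […] was present throughout; the assay buffer was DPBS with 0.05% BSA and 0.005% Tween 20.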
# TRPML1 blocker – qHTS for Inhibitors of the Human Mucolipin Transient Receptor Potential 1 (TRPML1) | TRPML1-inducible cells, Ca2+ dye fluorescence, FDSS; active compounds read low; inhibition of EC80 agonist-evoked calcium signal | activity change, negative = inhibition, % (no concentration beside the values) | 390,000 compounds, 0.02% hits | AID 624415, 2012; in the data active means activity change below about -50%; inconclusive means about -30% to -50%; inactive means above about -30%;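 note: stimulus is agonist 54-4 at its EC80 concentration; % is set by controls: 0 for no effect and ±100 for the full control effect; compound concentration not given in the record; the text of the record puts the active cut at -80%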
# Target sequence (Q9GZU1 whole entry, looked up): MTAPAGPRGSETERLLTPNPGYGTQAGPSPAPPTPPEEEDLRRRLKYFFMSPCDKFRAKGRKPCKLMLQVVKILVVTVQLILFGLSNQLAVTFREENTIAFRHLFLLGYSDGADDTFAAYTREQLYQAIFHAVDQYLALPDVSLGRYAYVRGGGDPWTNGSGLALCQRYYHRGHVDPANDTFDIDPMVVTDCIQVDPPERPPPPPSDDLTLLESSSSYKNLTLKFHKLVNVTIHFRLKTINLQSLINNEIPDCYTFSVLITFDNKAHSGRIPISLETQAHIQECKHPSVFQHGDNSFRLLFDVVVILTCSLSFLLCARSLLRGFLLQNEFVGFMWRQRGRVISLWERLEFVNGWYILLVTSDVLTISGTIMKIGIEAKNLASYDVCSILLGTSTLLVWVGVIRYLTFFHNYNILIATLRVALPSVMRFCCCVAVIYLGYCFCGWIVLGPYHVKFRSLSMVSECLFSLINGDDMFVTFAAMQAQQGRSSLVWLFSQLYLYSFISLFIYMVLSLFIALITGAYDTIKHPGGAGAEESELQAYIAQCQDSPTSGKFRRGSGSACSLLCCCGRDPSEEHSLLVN
#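 Tet-induced TRPML1-DL cells loaded with Ca8 no-wash calcium dye were read kinetically on FDSS. Compound addition was followed by EC80 agonist 54-4 (4 uM final); inhibition was read over 110 s.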
# * hit, by the source's call; ? = inconclusive; . = not tested or not shown; [ ] = remark or other dose.
# Values run as follows: TRPV1 PAM | Sfp inh | gsp ag | Menin MLL FP FL | ClpP mod | gsp antag | TRPML1 blocker
(1) CN(C)S(=O)(=O)c1ccc(NC(=O)Cn2nc(-c3ccc4c(c3)OCCO4)ccc2=O)cc1
    . | . | 2.0%[15.4 µM] | . | . | 9.9% | 40.9
(2) CC(C)(C)OC(=O)C[C@H]1C/C=C\C[C@H](CC(=O)N[C@@H](CO)Cc2ccccc2)C(=O)N[C@H](C(C)(C)C)COC1=O
    . | . | . | . | -0.7% | 7.6% | 3.2
(3) COC(=O)C(Cc1ccc(O)cc1)NC(=O)C(C)NC(=O)c1ccc(C(C)(C)C)cc1 (stereo not given)
    -7.2 | -3.3% | 13.4%[15.4 µM] | 2.1 | . | -16.5% | -10.0
(4) CC(Nc1[nH]c(=O)n(C)c(=O)c1N=O)c1ccccc1 (stereo not given)
    -2.7 | -17.2% | 0.4%[15.4 µM] | -2.5 | . | 11.3% | 24.7
(5) CCCNC(=O)c1onc(CS(=O)(=O)c2cccc(OC)c2)c1C(=O)NCCC
    -5.5 | . | ? | . | -0.6% | -9.7% | 16.0
(6) CC(O)CCC(=O)NNC1CC(=O)N(c2ccccc2)C1=O (stereo not given)
    4.8 | 11.6% | 4.1% | -3.1 | . | 7.6% | 7.1
(7) COCCn1c(SCC(=O)Nc2ccc3c(c2)OCCO3)nc2c(c1=O)SC(C)C2 (stereo not given)
    ? | 15.9% | 15.8% | -1.3 | -4.7% | -14.6% | -5.7
(8) CN1/C(=C\C(=O)CSc2cccc[n+]2[O-])C(C)(C)c2ccccc21
    -2.1 | 15.8µM* | 3.9%[15.4 µM] | -1.0 | . | -2.8% | 3.6
(9) COc1ccc2nc(C(C)O)[nH]c2c1 (stereo not given)
    11.8 | ? | -8.6% | 3.0 | -3.7% | 9.6% | 0.7
(10) CCOC(=O)c1ccc(NC(=O)Nc2ncccc2C)cc1
    -4.4 | 12.0% | 2.3% | -1.0 | -1.5% | 3.0% | -12.0
(11) Cn1c(SCC(=O)Nc2nccs2)nnc1C12CC3CC(CC(C3)C1)C2
    -20.6 | 1.0% | 26.4% | -6.0 | 1.8% | -3.9% | 2.5
(12) O=C(Cc1ccc(Cl)cc1)NCC(=O)N1CCCC1
    -16.1 | 13.3% | -22.7% | 0.7 | 0.8% | -6.7% | -8.6
(13) O=C(CCNS(=O)(=O)/C=C/c1ccccc1)NCCc1c[nH]c2ccccc12
    -1.0 | 25.2% | 0.2%[15.4 µM] | 2.0 | . | -14.2% | 36.5
(14) Cc1c(C(=O)N2CCN(c3ccccn3)CC2)sc2ncnc(N3CCN(c4ccccc4)CC3)c12
    . | . | -5.0% | . | 0.2% | -15.0% | 17.3
(15) O=C(NCC(=O)N(CCN1CCOCC1)C(C(=O)NC1CCCC1)c1cccnc1)c1cccs1 (stereo not given)
    8.8 | 29.2% | -12.1% | 3.2 | -0.5% | 7.1% | 15.5

# From no. 14 to 15, copied from above:
# Values run as follows: TRPV1 PAM | Sfp inh | gsp ag | Menin MLL FP FL | ClpP mod | gsp antag | TRPML1 blocker
(14) Cc1c(C(=O)N2CCN(c3ccccn3)CC2)sc2ncnc(N3CCN(c4ccccc4)CC3)c12
    . | . | -5.0% | . | 0.2% | -15.0% | 17.3
(15) O=C(NCC(=O)N(CCN1CCOCC1)C(C(=O)NC1CCCC1)c1cccnc1)c1cccs1 (stereo not given)
    8.8 | 29.2% | -12.1% | 3.2 | -0.5% | 7.1% | 15.5

# Molecules shown so far that contain an NH in an aromatic ring (three):
# Values run as follows: TRPV1 PAM | Sfp inh | gsp ag | Menin MLL FP FL | ClpP mod | gsp antag | TRPML1 blocker
(4) CC(Nc1[nH]c(=O)n(C)c(=O)c1N=O)c1ccccc1 (stereo not given)
    -2.7 | -17.2% | 0.4%[15.4 µM] | -2.5 | . | 11.3% | 24.7
(9) COc1ccc2nc(C(C)O)[nH]c2c1 (stereo not given)
    11.8 | ? | -8.6% | 3.0 | -3.7% | 9.6% | 0.7
(13) O=C(CCNS(=O)(=O)/C=C/c1ccccc1)NCCc1c[nH]c2ccccc12
    -1.0 | 25.2% | 0.2%[15.4 µM] | 2.0 | . | -14.2% | 36.5

# Going on with the list:
# Values run as follows: TRPV1 PAM | Sfp inh | gsp ag | Menin MLL FP FL | ClpP mod | gsp antag | TRPML1 blocker
(16) CCCCn1c(O)c(N=NC(=O)c2ccccc2NS(=O)(=O)c2cccs2)c2ccccc21
    17.3 | -6.6% | 10.5% | -1.2 | 0.8% | -5.8% | -5.1
(17) O=S(=O)(c1ccc(Br)cc1)N1CCCC1
    11.8 | 7.2% | 2.2% | -1.2 | -0.2% | -1.5% | -5.7
(18) CCN(CC)S(=O)(=O)c1ccc(NC(=O)CSc2nnc(-c3cccc(OC)c3)n2C)cc1
    -4.3 | -10.7% | 5.2% | 3.4 | -2.0% | -19.5% | 12.6
(19) CC1CCCCC1NC(=O)COC(=O)c1cc(=O)[nH]c2ccccc12 (stereo not given)
    . | . | 13.7% | . | -4.1% | 18.9% | 31.6
(20) COc1cc(C(=O)Nc2cc(C)c(OCC(=O)N3CCOCC3)c(C)c2)cc(OC)c1OC
    15.2 | 10.6% | ? | 0.1 | -3.2% | 3.1% | 4.1
(21) CCn1c2ccccc2c2cc(CNCCCN3CCOCC3)ccc21
    1.6 | -1.7% | -12.0% | -9.2 | 1.5% | 11.1% | 5.8
(22) Cc1cc(C)n(C(C[N+](=O)[O-])c2ccc(Cl)cc2)n1 (stereo not given)
    -2.9 | -12.2% | 2.2% | 1.4 | -25.6% | 4.2% | -14.4
(23) Cc1ccc(CN2CCC(Oc3cccc(C(=O)N(C)CCN(C)C)c3)CC2)cc1C
    -9.4 | 7.8% | -46.1%[inhibitor] | -11.5 | . | 3.9% | -8.9
(24) COc1ccc(/C=C/C(=O)NC(=S)N2CCCCC2)cc1OC
    -4.7 | 3.3% | -12.2%[15.4 µM] | 1.8 | . | 9.4% | 7.3
(25) Cc1c(NC(=S)N/N=C/c2cccc(O)c2)c(=O)n(-c2ccccc2)n1C
    13.7 | ? | -8.4% | 2.8 | 0.5% | -1.2% | 11.9
(26) Cc1ccc(S(=O)(=O)N2CCCC(C(=O)NC3CC3)C2)cc1 (stereo not given)
    20.2 | 5.8% | -3.6% | 0.7 | . | 2.7% | 19.5
(27) CC(/C=N\NC(=O)Cn1c(C)nc2ccccc21)=C\c1ccccc1
    0.6 | 16.4% | -13.2%[15.4 µM] | 2.5 | ? | -1.4% | 7.0
(28) CCCNC(=O)c1ccc2c(=O)c(O)c(-c3ccc(C)cc3)[nH]c2c1
    26.9 | 14.4% | . | 11.4 | -9.9% | 7.5% | 3.3
(29) NC(=O)COc1ncn(-c2ccccc2)n1
    -0.1 | 8.5% | -26.1% | 1.2 | -2.0% | -0.4% | 9.4
(30) CCCNC(=O)C(Cc1ccc(Br)cc1)NC(=O)c1ccc(C#N)cc1 (stereo not given)
    -16.8 | . | 12.2% | . | -1.9% | 12.1% | 4.8
(31) COc1ccc(C(=O)c2c(N)sc3c2CCN(C(=O)OC(C)(C)C)C3)cc1
    -4.2 | 79.4µM* | -32.8%[15.4 µM] | 24.0 | . | -17.6% | -2.2
(32) COCCn1c(SCC(=O)Nc2ccc(Cl)cn2)nc2ccccc21
    ? | 9.9% | -18.0% | 0.6 | 0.3% | 4.6% | 2.9
(33) C#CCOCCOCCOCCNc1nc(N2CCOCC2)nc(N2CCN(C(=O)[C@H](C)n3cc(CCCN=C(N)N)nn3)CC2)n1
    5.8 | 19.1% | . | 1.3 | 0.0% | 9.7% | -3.2

# Just TRPML1 blocker, for some of the entries so far:
no.	Molecule	TRPML1 blocker
1	CN(C)S(=O)(=O)c1ccc(NC(=O)Cn2nc(-c3ccc4c(c3)OCCO4)ccc2=O)cc1	40.9
11	Cn1c(SCC(=O)Nc2nccs2)nnc1C12CC3CC(CC(C3)C1)C2	2.5

# Rows are unselected. About 4.9% of those tested had a hit in this group.
